# Calb FLC: C. albicans growth modulation with fluconazole; 300,000 compounds, 0.57% hits; C. albicans CaCi-2 (fluconazole-resistant clinical isolate) + fluconazole, Alamar Blue growth, 48 h; AID 1979; growth inhibition, % (test concentration not listed);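 active = most replicates above 75%; inconclusive = exactly half above 75%; inactive = most below 75%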;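 note: all wells also contain fluconazole at 8 µg/ml as a sub-toxic cotreatment; 0% = median of DMSO wells and 100% = median of geldanamycin control wells; wells of about 8 µL received 7.5 nL stock; the first replicate is given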
# Bfl-1 A1 inh: inhibitors of the anti-apoptotic protein A1, read as caspase activation; caspase activation, % (concentration not given with the values); AID 2462; MEF A1-2A-BIM cells, Caspase-Glo 3/7 luminescence, 3 h; percent of clofoctol response, vehicle zero; 330,000 compounds, 0.066% hits;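 active = over half of replicate activation scores above 10%, or exactly half above 10 with the replicate mean above 10; inconclusive = replicate mean below 10 yet half the replicates above 10; inactive = over half of replicates below 10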;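 note: wells of about 30 µL received 50 nL stock; many hits fall short of the cut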
# LANA-H2B inh: blocks KSHV LANA binding to histone H2A/H2B; Q9QR71; cell-free LANA-H2A/H2B peptide, fluorescence polarization; inhibition, % (test concentration not listed); 320,000 compounds, 0.6% hits; in the data active = inhibition mostly above about 10%, no sharp cut-off; inactive = mostly below about 6.7%;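 note: stock transfer was 7.5 nL into about 10 µL; 0% = median of vehicle wells and 100% = median of positive control wells; one replicate is shown; the record names a cut of 25% in any replicate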
# T cruzi inh: T. cruzi replication inhibition; T. cruzi beta-gal in NIH3T3, luminescence, 90 h; inhibition, % (no concentration beside the values); 300,000 compounds, 1.4% hits;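 active = mean inhibition across valid replicates above about 55%, limit read from the data; inconclusive = mean below that limit but half or more replicates reach it; inactive = mean below it, under half of replicates reach it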;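 note: signal also drops with host cell toxicity which is not excluded here; 0% = plate median of DMSO wells and 100% = zero luminescence signal; higher percent means less beta-gal luminescence so fewer parasites; stock transfer was 50 nL into about 50 µL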
# ALR inh: inhibitors of human sulfhydryl oxidase ALR. purified ALR, DTT oxidation, H2O2 HRP-luminol luminescence. inhibition, % (test concentration not listed). 290,000 compounds, 3.8% hits. AID 485317;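 active = mean and each replicate at 75% or more; inconclusive = only one of the two met; inactive = neither met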;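 note: stock transfer was 7.5 nL into about 7.5 µL; 0% = neutral wells and 100% = wells with inactivated enzyme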
# Target sequence (P55789 whole entry, looked up): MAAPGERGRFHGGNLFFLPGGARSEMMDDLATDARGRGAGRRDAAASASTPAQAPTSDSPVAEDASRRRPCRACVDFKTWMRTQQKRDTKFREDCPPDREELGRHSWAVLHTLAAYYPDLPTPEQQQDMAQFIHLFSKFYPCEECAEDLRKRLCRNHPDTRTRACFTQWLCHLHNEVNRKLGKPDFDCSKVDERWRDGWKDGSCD
# Beta2AR agonist: agonists of human beta-2 adrenergic receptor inducing internalization. P07550. Am2.2-beta2AR cells, FAP receptor internalization, flow cytometry; reference of the scale not given here. response, % (concentration not given with the values). 340,000 compounds, 0.43% hits;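 active = response above a set limit, near 3 SD of response in nonfluorescent compounds, cut at about 42% in these data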;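 note: stock transfer was 100 nL into about 11 µL; a reference agonist was the positive control; negative values mostly stem from fluorescent compounds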
# Target sequence (P07550 whole entry, looked up): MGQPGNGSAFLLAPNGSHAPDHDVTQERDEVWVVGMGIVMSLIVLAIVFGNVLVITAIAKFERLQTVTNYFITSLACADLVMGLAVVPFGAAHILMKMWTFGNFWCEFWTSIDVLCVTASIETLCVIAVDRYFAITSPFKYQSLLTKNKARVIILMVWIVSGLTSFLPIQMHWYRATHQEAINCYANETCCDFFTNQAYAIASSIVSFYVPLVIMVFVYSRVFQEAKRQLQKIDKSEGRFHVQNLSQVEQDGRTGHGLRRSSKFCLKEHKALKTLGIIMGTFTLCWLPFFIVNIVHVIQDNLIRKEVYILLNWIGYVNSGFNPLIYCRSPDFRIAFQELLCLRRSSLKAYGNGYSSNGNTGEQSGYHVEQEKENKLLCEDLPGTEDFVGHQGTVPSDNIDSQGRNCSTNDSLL
# Ecoli rRNA inh: selective bacterial rRNA inhibition in E. coli; E. coli WT GFP vs humanized-ribosome RFP mutants, fluorescence, 24 h; stronger effect = lower value; DMSO median 0, no signal -100; GFP signal change (wild-type ribosome), % (test concentration not listed); 350,000 compounds, 1.6% hits;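 active = significant combined selectivity score with lowered wild-type GFP, culture density cut under 30%, mutant RFP and density less affected; inactive = any of these conditions unmet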; note: one replicate is shown; some compounds called inactive have numbers as strong as hits
# Beta apoptosis: blocks beta cell apoptosis | INS-1E cytokine-induced death, ATP luminescence, 48 h; percent of positive-control rescue, neutral wells zero | protection from apoptosis, % (test concentration not listed) | 300,000 compounds, 0.8% hits | AID 435005;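 active = all replicates at 75% or more, or half of them and the mean; inconclusive = half reach 75% but not the mean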;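 note: 0% = cytokine-treated negative control wells and 100% = positive control rescue; higher means more ATP so stronger rescue from cytokine killing; wells of about 40 µL received 100 nL stock; the first replicate is given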
# Ecoli rRNA inh OD600: recorded beside Ecoli rRNA inh, whose call it bears; OD600 change, %; measured here: OD600 growth;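 optical density of the mix in the first replicate; 0 = DMSO median and -100 = no signal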
# Ecoli rRNA inh RFP: second read-out of Ecoli rRNA inh, no call of its own (marks repeat the call); RFP signal change, %; measured here: RFP humanized mutant strains;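 first replicate; 0 = DMSO median and -100 = no signal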
# Active calls of the source: *; u = inconclusive; x = not tested or not shown.
SMILES,Calb FLC,Bfl-1 A1 inh,LANA-H2B inh,T cruzi inh,ALR inh,Beta2AR agonist,Ecoli rRNA inh,Ecoli rRNA inh OD600,Ecoli rRNA inh RFP,Beta apoptosis
OCCNCC(O)CN1c2ccccc2Sc2ccccc21 (configuration not stated),26,-0.1,-2.6,-20,99*,-7,-8,-8,1.5,-3
Cn1c(-c2ccc(CN3CCCCC3)o2)nc2ccccc21,-3,-2.8,-2.7,35,4,-9,x,x,x,3
O=C(O)c1ccc2c(c1)S(=O)(=O)N=C1CCCCCN12,-5,1.4,-4.2,-4,-19,8,21,23,1.2,-2
CCCOc1nnnn1-c1ccccc1,-7,0.1,1.5,-3,7,-1,x,x,x,-5
Cc1ccc(C2CC(=O)NC(SCc3ccccc3)=C2C#N)cc1 (configuration not stated),9,-0.2,1.1,10,-4,4,x,x,x,-2
O=C(Cn1nc(-c2ccccc2)ccc1=O)NCCN1CCN(Cc2ccccc2)CC1,-11,u,-0.2,7,3,-9,9,6,-0.5,-2
CC(Oc1ccc(Cl)cc1)C(=O)NCCN1C(=O)S/C(=C\c2cccnc2)C1=O (configuration not stated),4,-0.2,x,2,x,-13,x,x,x,-5
Cc1c(C(=O)NCc2ccc3c(c2)OCO3)sc2nc(-c3ccc(F)cc3)cn12,-8,-0.4,3.5,10,5,-2,4,-10,-3.9,-1
Cc1n[nH]c(=O)nc1NCc1ccc(Cl)cc1,-9,1.1,-1.6,-4,-21,9,x,x,x,0
CC(CS(=O)(=O)c1ccc2c(c1)NC(=O)CS2)C(=O)NCc1ccccc1Cl (configuration not stated),25,0.1,6.0,13,-9,-8,-3,-12,2.3,-6
O=C(Nc1ccc(OC(F)(F)F)cc1)c1ccc2ccccc2n1,0,0.8,-3.4,-14,-1,2,10,8,0.5,2
COc1ccc2oc(=O)c(C(=O)O)cc2c1,-7,0.1,-1.6,-8,-2,7,x,x,x,7
CCn1c2ccccc2c2nnc(SCC(=O)N(C)C3CCS(=O)(=O)C3)nc21 (configuration not stated),-3,2.6,1.8,9,-4,2,x,x,x,-1
CCC(=O)c1ccc(OCC(=O)OCC(=O)Nc2sccc2C(N)=O)cc1,11,1.3,3.4,-10,13,26,3,-10,2.5,-5
CCOC(=O)C1=C(c2ccccc2)Nc2ncnn2C1c1ccc(OC)c(OC)c1OC (configuration not stated),-10,0.4,0.4,56*,7,-3,x,x,x,-13
COCc1nnc(NC(=O)CC(c2ccccc2)c2ccccc2)s1,12,-0.1,-2.1,-5,-1,2,x,x,x,-17
COc1ccc(-c2csc(NC(=S)NC(=O)c3ccccc3)n2)cc1Br,-1,-0.8,1.0,40,-9,3,6,9,3.6,x
COC(=O)c1cc(=O)n(-c2ccc(F)cc2)c(=Nc2ccc(F)cc2)s1,11,-0.6,2.4,42,7,15,-1,6,-1.4,-1
NC(=O)c1cc(C(=O)c2ccc(Cl)cc2Cl)c[nH]1,1,-0.4,-1.4,-21,-6,0,-13,-16,-29,-15
CCn1c(=O)c(C(=O)NNC(=O)c2ccccc2Cl)c(O)c2ccccc21,6,1.0,4.6,2,x,3,-29,-45,2.0,-3
COC(=O)c1c(NC(=O)c2ccccc2[N+](=O)[O-])sc2c1CC(C)(C)NC2(C)C,-19,0.3,3.6,6,-18,-138,3,-7,1.9,-8
CC(C)Cc1nnc(NC(=O)Cc2ccc([N+](=O)[O-])cc2)s1,4,0.1,2.9,11,-10,1,8,7,-2.6,x
COc1ccccc1C(=O)NNC(=O)c1ccc(NC(=O)c2ccccc2)cc1,-4,1.5,-0.9,4,0,3,-10,-9,-7.0,-2
O=C(Nc1cccc(F)c1)C1CCN(C(=O)c2ccc(Cl)cc2)CC1,22,0.4,-0.6,-4,-1,-8,x,x,x,-7
CCCC(=O)NC1=C(C#N)C2(CCCC2)Cc2ccccc21,18,-0.3,-11,-8,-3,8,x,x,x,-3
CCCn1cc(NC(=O)C2CC(c3cccc(Br)c3)=NO2)cn1 (configuration not stated),1,0.0,-2.8,-9,1,3,x,x,x,-1
CCOC(=O)c1c(C)nc2ccc(C)cn12,7,0.5,6.5,-2,-34,2,x,x,x,1
CCOn1c(=O)c(-c2ccc(C)cc2)[n+]([O-])c2ccccc21,-3,0.5,1.6,-9,x,-16,8,8,0.1,x
O=C(CSc1nnnn1Cc1ccccc1)Nc1ccc2c(c1)OCO2,-6,-0.1,-2.7,1,-3,2,x,x,x,2
S=C1NC2(CCCC2)N=C1c1ccccc1,1,3.3,-2.6,-4,24,-2,6,-3,-3.6,-1
Nc1c(-c2cccs2)cnn1-c1nc(-c2ccc(Cl)cc2Cl)cs1,16,-0.4,-0.1,35,-7,-6,x,x,x,-3
CCOC(=O)c1sc(N=NC2=C(O)CCCC2=O)c(C(=O)OCC)c1C,12,1.1,-1.9,-9,-10,6,-26*,10.0*,0.7*,-3
CC(=O)N1CC=CC1(C)C(=O)NCc1cc(F)cc(C(F)(F)F)c1 (configuration not stated),-9,-0.3,-7.6,7,1,-1,8,4,8.2,0
Cc1oc(-c2ccc(Cl)cc2)cc1-c1nn2c(-c3ccoc3C)nnc2s1,-8,0.4,-2.9,-12,9,11,x,x,x,-10
CN(C)CCN(C(=O)c1ccc(S(=O)(=O)N2CCCC2)cc1)c1nc2ccc(Br)cc2s1,-1,0.4,1.3,57*,-1,16,3,3,5.5,1
CCOC(=O)C1(Cc2cccc(OC)c2)CCN(C/C=C/c2ccc(OC)cc2)CC1,1,1.4,2.2,24,-5,-11,-51,-82,-8.6,20
CC(=O)Nc1cc2c(cc1NC(=O)Cn1nc(-c3ccc4c(c3)OCCO4)ccc1=O)OCCO2,10,1.5,-1.5,20,3,4,x,x,x,6
CCOc1ccc(C(=O)N[C@H](C(=O)Nc2ccc(S(=O)(=O)Nc3nccs3)cc2)C(C)C)cc1,x,1.1,5.5,x,9,0,3,-10,17,-1
COC(=O)CCCC1=CC2=CC(=O)C(C)(OC(=O)C3CCCC3)C(=O)C2=CO1 (configuration not stated),19,0.3,3.0,-6,-11,13,x,x,x,-5
CCN(CC)C(C(=O)Nc1ccc2c(c1)OCO2)c1ccccc1 (configuration not stated),-7,0.1,-0.1,0,-4,28,x,x,x,0
Cc1ccc(SCC(=O)NCCN2C(=O)CSC2=O)cc1C,23,0.3,2.0,-20,10,-4,x,x,x,-10
O=c1c(Cc2ccc(F)cc2)c(O)ccn1C1CC1,-4,0.2,11,-4,0,-7,x,x,x,-12
CCCCCn1c(N2CCC(Cc3ccccc3)CC2)nc2c1c(=O)[nH]c(=O)n2C,-10,-0.2,0.0,57*,-3,-4,x,x,x,20
CCC(CO)Oc1cc(NCc2ccc(Cl)cc2)c2ncn(C(C)C)c2c1 (configuration not stated),x,-0.2,0.5,x,-10,-19,3,6,-7.2,1
COc1ccc(OC)c(/C=C2\SC(=S)N(C(C(=O)O)c3ccccc3)C2=O)c1 (configuration not stated),6,1.3,4.7,-8,x,5,-33,-45,-12,2
CCOC(=O)C1=C(C)NC(=O)NC1c1cccc(OC)c1OCc1ccccc1Cl (configuration not stated),1,-0.4,5.3,22,-11,3,x,x,x,-1
Cc1nn(C)c(C(=O)NNC(=S)Nc2ccc(F)cc2)c1[N+](=O)[O-],17,-0.7,-3.2,0,21,7,x,x,x,1
CCN(CC)S(=O)(=O)c1ccc(-c2nnc(SCc3nnc(-c4ccc(C)cc4)o3)o2)cc1,1,0.1,0.2,9,1,-2,x,x,x,4
Cc1ccc(C)c(NS(=O)(=O)c2ccc3c(c2)Cc2cc(S(=O)(=O)Nc4cc(C)ccc4C)ccc2-3)c1,x,-0.2,-381,x,9,1,x,x,x,3
O=C(c1ccccn1)c1ccc2ccccc2n1,-10,-0.4,2.5,x,-5,-5,16,4,-0.4,0
Cc1ccc(-c2csc(NC(=O)CN3C(=O)CCC3=O)n2)cc1,4,-0.5,1.3,-10,-5,0,5,8,-8.9,-2
O=C(NCc1cccs1)C1CC(c2ccc(Cl)cc2)=NO1 (configuration not stated),1,-0.2,8.1,12,-3,-8,11,10,1.1,-8
Cc1nnc(N2CCN(c3ccccc3)CC2)[nH]c1=O,13,-0.6,-1.5,4,x,1,x,x,x,-1
O=C(Nc1ccc2c(c1)OCCO2)C1CCCN(S(=O)(=O)c2cnc[nH]2)C1 (configuration not stated),5,x,x,-3,x,-2,6,1,2.2,x
CCN(C(=S)Nc1cccc(C)c1)c1ccccc1,4,0.1,2.8,-5,39,-2,x,x,x,x
CCn1ncc(/C=N\NC(=O)c2ccc3c(c2)c(C)c(C)n3Cc2ccccc2)c1C,-9,1.4,0.2,9,36,1,x,x,x,-1
CC1CN(CCCSc2ccc(Cl)cc2)CC(C)O1 (configuration not stated),-55,-0.1,0.5,4,11,-2,-10,-6,-0.8,-1
C/C(=N\NC(=O)c1cc(C)oc1C)c1ccc(C)c([N+](=O)[O-])c1,x,-1.0,1.7,x,x,0,8,17,-2.5,-5
COC(=O)CSc1cc(C)nc(NC(C)=O)n1,0,-0.5,0.6,-4,-13,8,x,x,x,-3
Cc1ccc2oc(=O)cc(CN3CC(C)OC(C)C3)c2c1 (configuration not stated),-13,0.3,-1.6,-13,-1,6,3,1,2.7,-3

# The list continues:
SMILES,Calb FLC,Bfl-1 A1 inh,LANA-H2B inh,T cruzi inh,ALR inh,Beta2AR agonist,Ecoli rRNA inh,Ecoli rRNA inh OD600,Ecoli rRNA inh RFP,Beta apoptosis
CNC(=O)CN(c1cc(OCCOC)c(Cl)cc1Cl)S(=O)(=O)c1ccccc1,-5,-1.4,-0.7,6,2,9,-2,8,-2.3,2
COc1ccc(OC)c(/C=C/C(=O)Nc2cccc(S(=O)(=O)NC3=NCCCCC3)c2)c1,x,0.1,-3.9,x,x,2,-11,-10,3.9,-2
Cc1cc(NC(=O)CSc2nc(C(C)C)nc3sc4c(c23)CCC(C)C4)no1 (configuration not stated),13,-0.2,-0.3,6,-10,2,x,x,x,13
CC1CN(C(=O)COC(=O)[C@@H](NC(=O)c2ccccc2Cl)C(C)C)CC(C)O1 (some centres not stated),x,0.7,0.5,x,-1,6,2,9,-1.4,-3
CC(C)C(C(=O)Nc1ccccc1F)N1C(=O)c2ccccc2C1=O (configuration not stated),11,-0.2,3.3,-23,13,-5,-10,-10,-1.3,-3
CC[C@@]12C(=O)N(c3ccccc3)C(=O)N1[C@H](c1cccc(C)c1)[C@@H]1C(=O)N(Cc3ccccc3)C(=O)[C@@H]12,2,0.6,-1.9,-16,3,5,2,3,-4.2,0
COc1ccc(C(=O)c2nccc3ccccc23)cc1,-48,0.3,-2.9,-5,-19,1,-9,-3,5.5,-4
CN(C)c1ccccc1C(=O)N1CCC(n2nccc2NC(=O)C2CC2)CC1,2,0.2,3.2,-28,4,-8,9,11,1.4,-2

# Screening results as filed in PubChem.

# These rows are one share of the data; count on the stated rates, not on these rows.
